# Assay outcomes from PubChem.
# Ecoli rRNA inh – selective bacterial rRNA inhibition in E. coli; E. coli WT GFP vs humanized-ribosome RFP mutants, fluorescence, 24 h; stronger effect = lower value; DMSO median 0, no signal -100; 350,000 tested, 1.6% active; AID 720706; GFP signal change (wild-type ribosome), % (test concentration not listed);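 active = significant combined selectivity score with lowered wild-type GFP, culture density cut under 30%, mutant RFP and density less affected; inactive = any of these conditions unmet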; note: one replicate is shown; some compounds called inactive have numbers as strong as hits
# FGF22 binding – FGF22 (human) thermal shift binding | 340,000 tested, 1.5% active | Q9HCT0 | calls only at 9.99 µM | AID 651658 | recombinant FGF22 thermal shift, SYPRO orange fluorescence; percent of sucrose octasulfate shift, DMSO zero;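 active = melting point raised past a set limit in the mean and every replicate; three in four hits are not shown here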
# Target sequence (Q9HCT0 whole entry, looked up): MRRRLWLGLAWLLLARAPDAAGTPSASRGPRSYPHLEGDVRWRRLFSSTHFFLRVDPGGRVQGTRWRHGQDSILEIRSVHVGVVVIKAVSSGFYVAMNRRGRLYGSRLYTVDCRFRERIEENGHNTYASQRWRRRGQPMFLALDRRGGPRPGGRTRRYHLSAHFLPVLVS
# AF4-AF9 inh – inhibitors of human MLL-AF4/AF9 interaction; P42568; AlphaScreen, biotin-AF4 peptide binding to FLAG-AF9; inhibition, % at 10 µM; 350,000 tested, 0.47% active;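 active = every replicate reaching a set inhibition limit, whatever the replicate mean, cut at about 25% in these data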;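 note: 0% = plate neutral control median and 100% = total signal loss; the record names both 10 and 1 µM as test concentration; the first replicate is given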
# Target sequence (P42568 whole entry, looked up): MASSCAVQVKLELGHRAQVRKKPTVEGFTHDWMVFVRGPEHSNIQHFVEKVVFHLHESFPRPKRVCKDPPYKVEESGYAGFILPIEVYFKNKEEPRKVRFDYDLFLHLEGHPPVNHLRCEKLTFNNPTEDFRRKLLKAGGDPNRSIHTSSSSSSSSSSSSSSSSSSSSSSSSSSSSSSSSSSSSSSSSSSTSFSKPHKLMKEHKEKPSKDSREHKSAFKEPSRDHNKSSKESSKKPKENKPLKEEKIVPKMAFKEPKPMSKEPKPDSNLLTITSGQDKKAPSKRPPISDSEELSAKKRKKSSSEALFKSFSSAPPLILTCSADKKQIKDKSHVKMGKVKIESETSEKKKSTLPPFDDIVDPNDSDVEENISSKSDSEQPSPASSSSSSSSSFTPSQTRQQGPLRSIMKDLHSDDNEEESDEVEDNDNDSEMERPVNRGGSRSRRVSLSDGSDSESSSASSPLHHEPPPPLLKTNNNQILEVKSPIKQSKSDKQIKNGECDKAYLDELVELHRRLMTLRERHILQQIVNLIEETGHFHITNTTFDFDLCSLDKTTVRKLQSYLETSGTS
# Ecoli rRNA inh OD600 – further read-out of Ecoli rRNA inh, marked with its call; OD600 change, %; measured here: OD600 growth;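 optical density of the mix in the first replicate; 0 = DMSO median and -100 = no signal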
# Ecoli rRNA inh RFP – also measured in Ecoli rRNA inh; calls as there; RFP signal change, %; measured here: RFP humanized mutant strains;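 first replicate; 0 = DMSO median and -100 = no signal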
# * hit, by the source's call; i = inactive; & = joins results of further samples.
SMILES,Ecoli rRNA inh,Ecoli rRNA inh OD600,Ecoli rRNA inh RFP,FGF22 binding,AF4-AF9 inh
C[C@@H]1CN([C@@H](C)CO)C(=O)c2cccc(NC(=O)c3ccncc3)c2O[C@H]1CN(C)S(C)(=O)=O,0,1,3.3,i,-3.2
Cc1cccc(C)c1-n1nnnc1C(c1ccnc2ccccc12)N(Cc1ccccc1)Cc1ccccc1 (centres undefined),3,16,-2.9,i,-1.8
CCC(=O)N1CC[C@@H]2[C@H]1c1cc(-c3ccc(OC)cc3)ccc1N(C)[C@H]2CO,-3,-12,0.6,i,16
COc1ccc(S(=O)(=O)N(C)C[C@H]2OCCCC[C@@H](C)Oc3ccc(NC(=O)CCC(F)(F)F)cc3C(=O)N([C@H](C)CO)C[C@@H]2C)cc1,3&5,-13&0,-2.4&-2.2,i,1.3&-4.1
CCC(=O)N1CCCCN2[C@@H](CO)[C@@H](c3ccc(-c4ccc(F)cc4)cc3)[C@@H]2C1,-5,-1,2.3,i,-1.0
C[C@@H]1CN([C@H](C)CO)C(=O)Cc2cc(NC(=O)Cn3cnnn3)ccc2O[C@H]1CN(C)S(=O)(=O)c1cccs1,1,-2,-1.8,i,0.4
COc1ccc(CN(C)C[C@H]2OCCCC[C@H](C)Oc3ccc(NS(=O)(=O)c4cccs4)cc3C(=O)N([C@H](C)CO)C[C@H]2C)cc1,3,-7,6.3,i,5.8
COc1ccc(/C=C/C(=O)Nc2ccc(C(C)=O)cc2)cc1S(=O)(=O)N1CCOCC1,11,9,-2.2,i,-2.7
COc1ccccc1-c1cnc2c(c1)C(=O)N([C@H](C)CO)C[C@H](C)[C@@H](CN(C)C(=O)CC1CC1)O2,-3,11,3.2,i,-3.5
COc1ccc(C#Cc2ccc([C@H]3[C@H]4CN(Cc5ccccc5F)CCCCN4[C@H]3CO)cc2)cc1,-34,-38,5.4,i,7.1
C[C@H]1CN([C@@H](C)CO)C(=O)c2cccc(NC(=O)Nc3ccc4c(c3)OCO4)c2O[C@H]1CN(C)S(=O)(=O)c1ccccc1,-2,-10,-0.6,i,6.1
CO[C@H]1CN(C)C(=O)c2cc(NC(=O)c3cnccn3)ccc2OC[C@H](C)NC[C@@H]1C,4,2,0.6,i,-2.9
COc1cc(C(=O)OCCCN2CCOCC2)cc(OC)c1OC,22,18,0.3,i,-5.5
C[C@H](CO)N1C[C@H](C)[C@H](CN(C)S(C)(=O)=O)Oc2c(NC(=O)Nc3cccc4ccccc34)cccc2C1=O,-6,-12,-1.5,i,2.2
CCOC(=O)[C@]12CCC=C1N(Cc1ccco1)C(=O)[C@H](CC(=O)NCC1CCCCC1)C2,-4,-9,0.6,i,-0.6
CCC(=O)Nc1ccc2c(c1)C(=O)N(C)C[C@@H](OC)[C@@H](C)CN(C(=O)CC1CC1)[C@@H](C)CO2,2,3,-0.5,i,-0.6
C#CCN([C@@H](C)C(=O)OCC)S(=O)(=O)c1ccc(Br)cc1F,-36,-44,-11,i,5.6
COc1cc(CNc2ncnc3c2ncn3[C@H]2CN(Cc3ccco3)C[C@@H](CO)O2)cc(OC)c1OC,6,17,0.2,i,-5.5
O=C(C[C@@H]1CC[C@H]2[C@@H](COC[C@@H](O)CN2CCc2ccccc2)O1)NCCCN1CCOCC1,2,0,-0.6,i,-2.5
O=C(C[C@@H]1CC[C@@H]2[C@H](COC[C@@H](O)CN2Cc2ccccc2F)O1)NCc1ccccc1F,3,1,2.9,i,-0.2
CC1=C(C(=O)N2CCOCC2)CC(CC(=O)NCc2ccco2)C(=O)N1Cc1ccccc1 (centres undefined),20,18,-0.5,i,-3.6
C[C@H]1CCCCO[C@@H](CN(C)C(=O)C2CCCCC2)[C@@H](C)CN([C@@H](C)CO)C(=O)c2cc(NC(=O)C3CCCCC3)ccc2O1,-3,-11,0.1,i,0.3
COCC(=O)N(C)C[C@@H]1Oc2ncc(C#CC(C)(C)O)cc2C(=O)N([C@H](C)CO)C[C@@H]1C,1,6,-3.4,i,-2.8
C[C@H]1CN([C@@H](C)CO)C(=O)c2cccc(NS(=O)(=O)c3ccc(Cl)cc3)c2O[C@@H]1CN(C)C(=O)Nc1ccccc1,-2,3,2.5,i,-10
O=C(C[C@@H]1CC[C@H](NC(=O)C2CCOCC2)[C@H](CO)O1)Nc1ccc(-c2ccccc2)cc1,-1,7,0.9,i,0.1
CN1c2ccc(Br)cc2[C@H]2[C@H](CCN2S(=O)(=O)c2ccccc2F)[C@H]1CO,-54,-74,-17,i,0.3
C[C@H](CO)N1C[C@H](C)[C@H](CN(C)S(=O)(=O)c2ccccc2)Oc2ncc(-c3ccncc3)cc2C1=O,-1,13,-0.8,i,-10
C[C@H](CO)N1C[C@H](C)[C@@H](CN(C)C)Oc2ccc(NC(=O)NC3CCCCC3)cc2CC1=O,6,6,-1.7,i,-1.5
CC(=O)N1CC[C@@H]2[C@H]1c1cc(-c3cccc(F)c3)ccc1N[C@@H]2CO,16,9,-2.0,i,-6.5
COc1ccc(NC(=O)N(C)C[C@@H]2OCCCC[C@@H](C)Oc3ccc(NC(=O)Cc4ccccc4)cc3C(=O)N([C@H](C)CO)C[C@@H]2C)cc1,1,-6,-2.9,i,-0.3
CN(C)CC(=O)N[C@@H]1CC[C@@H](CC(=O)NCc2ccc(Cl)cc2)O[C@H]1CO,2,5,-2.0,i,-0.1
C[C@H](CO)N1C[C@H](C)[C@H](CN(C)Cc2ccc(C(=O)O)cc2)Oc2ccc(NC(=O)C3CCCCC3)cc2C1=O,3,-8,-2.1,i,-4.3
CN1CCN(C(=O)C[C@@H]2C=C[C@@H](NC(=O)Cc3ccccn3)[C@@H](CO)O2)CC1,4,2,0.8,i,-2.6
CNC[C@@H]1OCCCC[C@@H](C)Oc2ccc(NS(=O)(=O)c3ccc(F)cc3)cc2C(=O)N([C@H](C)CO)C[C@@H]1C,3,5,-3.8,i,-0.5
Cc1noc(C)c1S(=O)(=O)Nc1ccc2c(c1)C(=O)N([C@H](C)CO)C[C@@H](C)[C@H](CN(C)C(=O)Nc1ccc3c(c1)OCO3)O2,6,6,0.7,i,-1.2
COc1ccc2c3c([nH]c2c1)[C@H](CO)N(C(=O)C1CCC1)CC31CN(C(=O)NC(C)C)C1,1,8,-1.6,i,-1.6
CO[C@@H]1CN(C)C(=O)c2cc(NC(=O)Nc3ccccc3F)ccc2OC[C@H](C)NC[C@@H]1C,1,2,1.3,i,-11
COc1ccc(S(=O)(=O)N(C)C[C@@H]2OCc3ccccc3-c3c(n(C)c4ccccc34)C(=O)N([C@H](C)CO)C[C@@H]2C)cc1,-3,-4,5.3,i,4.9
O=C(C[C@@H]1CC[C@@H](NC(=O)Cc2ccccn2)[C@@H](CO)O1)NCCc1ccccc1,1,6,-0.1,i,-2.8
COc1ccc(NC(=O)Nc2ccc3c(c2)C(=O)N([C@@H](C)CO)C[C@H](C)[C@H](CN(C)C(=O)Nc2ccc(F)cc2)OCCCC[C@H](C)O3)cc1,-1,-7,0.9,i,0.7
O=C(C[C@@H]1CC[C@@H]2[C@H](COC[C@H](O)CN2C(=O)Nc2ccc(Cl)cc2)O1)NC1Cc2ccccc2C1,-57,-77,-15,i,0.3
COc1ccc(NC(=O)Nc2ccc3c(c2)C(=O)N([C@H](C)CO)C[C@H](C)[C@H](CN(C)Cc2ccc(C(=O)O)cc2)OCCCC[C@H](C)O3)cc1,-1,7,0.8,i,-2.6
O=C1O[C@@H](c2ccccc2)C[C@@H](O)C(=O)CCc2ccccc21,4,-3,1.5,i,-2.2
COc1ccccc1NC(=O)N1CCCCN2[C@H](CO)[C@H](c3ccc(-c4cccc(C#N)c4)cc3)[C@H]2C1,-15,-18,-0.1,i,-6.7
CO[C@H]1CN(C)C(=O)c2ccc(NC(=O)C3CC3)cc2OC[C@H](C)N(C(=O)CN2CCOCC2)C[C@H]1C,2,-1,-1.6,i,1.5
C[C@@H]1CN([C@@H](C)CO)C(=O)CCCn2cc(nn2)CO[C@H]1CN(C)Cc1cccc(O)c1,1,4,-0.8,i,-1.3
CO[C@H]1CC[C@@H]2CCN(C)C(=O)C[C@@H](c3ccccc3)CN(C)C(=O)c3cc(C#N)ccc3OC[C@H]1O2,2,-8,2.5,i,-0.3
COc1ccc(NC(=O)N(C)C[C@@H]2Oc3ncc(C#Cc4ccc(F)cc4)cc3C(=O)N([C@H](C)CO)C[C@@H]2C)cc1,0,0,-0.1,i,1.6
CCC(=O)N1CC(=O)N2[C@H](CO)[C@H](c3ccc(C#CC4CCCCC4)cc3)[C@H]2C1,7,-12,0.3,i,4.1
COc1ccc(CNC(=O)C[C@@H]2C[C@@H]3c4cc(NS(C)(=O)=O)ccc4O[C@@H]3[C@H](CO)O2)cc1,1,-1,-0.5,i,-1.2
C[C@H](CO)N1C[C@H](C)[C@H](CN(C)C(=O)c2ccncc2)Oc2ncc(C#CC3CCCC3)cc2C1=O,4,3,-0.2,i,2.0
CCNC(=O)C1(C)CCN(C(=O)c2ccc3c(c2)OCO3)C1 (centres undefined),10,14,-1.1,i,-11
CCCC[C@@H]1Cc2[nH][nH]c(=O)c2[C@H](c2ccc(C(C)C)cc2)O1,19,-3,-3.4,i,-2.1
CC(C)NC(=O)Nc1ccc2c(c1)C(=O)N([C@@H](C)CO)C[C@H](C)[C@@H](CN(C)Cc1ccc3c(c1)OCO3)OCCCC[C@@H](C)O2,4,4,-0.3,i,2.3
Cc1cccc(C)c1NC(=O)C(C1CC1)n1c(-c2ccc(C(F)(F)F)cc2)nc2ccccc21 (centres undefined),-14,-25,-8.5,i,-2.2
CCCN1[C@H](C(=O)N[C@@H](C)c2ccccc2)[C@@H](CO)[C@@H]2Cn3c(ccc(-c4cccc(F)c4)c3=O)[C@@H]21,-13,-34,15,i,7.1
C[C@@H]1CCCCO[C@H](CN(C)Cc2ccc(C(=O)O)cc2)[C@@H](C)CN([C@H](C)CO)C(=O)c2cc(NS(=O)(=O)c3cccs3)ccc2O1,5,10,1.5,i,0.0
C[C@H]1CN([C@@H](C)CO)C(=O)c2cc(NC(=O)CCCN(C)C)ccc2O[C@H]1CN(C)S(=O)(=O)c1cn(C)cn1,6,9,-0.7,i,-2.7
COc1ccc(C(=O)N2C[C@H]3[C@@H](c4ccccc42)[C@H](CO)N3Cc2ccc(Cl)cc2)cc1,-26,-26,8.5,i,2.6
C[C@H]1CN([C@@H](C)CO)S(=O)(=O)c2ccc(-c3ccncc3)cc2O[C@H]1CN(C)Cc1cncnc1,3,7,0.1,i,-2.0

# Whole records as entered above. Order of screens: Ecoli rRNA inh | Ecoli rRNA inh OD600 | Ecoli rRNA inh RFP | FGF22 binding | AF4-AF9 inh
# Listed for C[C@@H]1CN([C@H](C)CO)C(=O)Cc2cc(NC(=O)Cn3cnnn3)ccc2O[C@H]1CN(C)S(=O)(=O)c1cccs1 = 1 | -2 | -1.8 | i | 0.4
# Listed for C[C@H]1CN([C@@H](C)CO)C(=O)c2cccc(NS(=O)(=O)c3ccc(Cl)cc3)c2O[C@@H]1CN(C)C(=O)Nc1ccccc1 = -2 | 3 | 2.5 | i | -10
# Listed for CCC(=O)Nc1ccc2c(c1)C(=O)N(C)C[C@@H](OC)[C@@H](C)CN(C(=O)CC1CC1)[C@@H](C)CO2 = 2 | 3 | -0.5 | i | -0.6
# Listed for C[C@H]1CN([C@@H](C)CO)S(=O)(=O)c2ccc(-c3ccncc3)cc2O[C@H]1CN(C)Cc1cncnc1 = 3 | 7 | 0.1 | i | -2.0
# Listed for CN(C)CC(=O)N[C@@H]1CC[C@@H](CC(=O)NCc2ccc(Cl)cc2)O[C@H]1CO = 2 | 5 | -2.0 | i | -0.1

# (cont.)
SMILES,Ecoli rRNA inh,Ecoli rRNA inh OD600,Ecoli rRNA inh RFP,FGF22 binding,AF4-AF9 inh
CC(=O)Nc1ccc(CNc2nc(NCCN(C)C)nc3cc(-c4ccccc4)sc23)cc1,-20*,-5.3*,1.7*,i,18
CC(C)CC#Cc1ccc2c(c1)O[C@@H](CN(C)C(=O)Nc1ccccc1)[C@H](C)CN([C@H](C)CO)S2(=O)=O,-5,-6,2.8,i,3.0
C[C@@H]1CN([C@@H](C)CO)C(=O)c2cccc(NC(=O)C3CC3)c2O[C@@H]1CN(C)C(=O)Nc1ccc(F)cc1,-1,15,-0.1,i,1.0
O=C(C[C@H]1CC[C@H](NC(=O)C2CC2)[C@@H](CO)O1)NCc1ccncc1,-3,7,-3.2,i,-0.2
COc1ccccc1S(=O)(=O)N[C@@H]1C=C[C@H](CC(=O)N2CCOCC2)O[C@@H]1CO,0,0,-1.1,i,0.1
COc1ccc2c3c(n(C)c2c1)[C@@H](CO)N(C(=O)Nc1ccc(F)cc1)CC31CN(Cc2ccccn2)C1,0,-2,7.1,i,2.8
CCC(=O)Nc1ccc2c(c1)OC[C@H](C)N(C(=O)c1ccccn1)C[C@H](C)[C@@H](OC)CN(C)C2=O,-1,-3,-0.2,i,-1.3
O=C(C[C@H]1C[C@H]2c3cc(NC(=O)C4CCC4)ccc3O[C@H]2[C@@H](CO)O1)NCC1CC1,-1,2,-0.3,i,-1.4

# Some of the compounds tested (hit frequency here may not be typical).
